RECQ1 helicase = blocks DNA unwinding by human RECQ1. P46063. RECQ1 DNA unwinding, red fluorescence kinetic read. Potency, µM (series often up to 57.3 µM), for the others: at the top dose activity, negative = inhibition, actives largely listed as inhibitors. hit rate 0.54% among 240,000. AID 2549;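 also: plate controls were vehicle for no effect and no enzyme for full effect; nearly all actives have a fitted effect of over 30% in size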
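RECQ1T1 50 nM; forked duplex (20 bp + 30-nt ss tails) 200 nM, ATP 2 mM final; pH 8.0, 2 mM MgCl2, 2.5 ug/ml poly(dI-dC); 15 min compound preincubation; discontinuous kinetic read over 2 h at RT.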
Tau fibril ThT = inhibitors of human tau fibril formation, thioflavin T binding | recombinant tau K18 P301L, heparin-induced fibrillization, ThT fluorescence | Potency, µM (highest dose often 57.4 µM), for inactives: at the top dose activity, negative = inhibition, hits mostly inhibitors | hit rate 2.1% among 270,000; also: % is scaled to controls: 0 for no effect and ±100 for the full control effect; nearly all actives have a fitted effect of over 55% in size
Target sequence (P10636 561-689 P618L limits assumed): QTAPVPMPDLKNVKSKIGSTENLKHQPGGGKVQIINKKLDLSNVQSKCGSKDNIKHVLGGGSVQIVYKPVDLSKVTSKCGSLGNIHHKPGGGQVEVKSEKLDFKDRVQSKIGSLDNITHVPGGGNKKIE
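Using a mix of unlabeled (15 uM) and Alexa 594-labeled (0.24 uM) tau K18 P301L, heparin-triggered fibrillization over 6 hr at 37 C was scored by ThT fluorescence.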
L3MBTL1 block = blocks human L3MBTL1. Q9Y468. AlphaScreen L3MBTL1–H3K9me1 peptide binding. Potency, µM (doses to about 57.1 µM), without a hit: top-dose activity, negative = inhibition, hits mostly inhibitors. hit rate 0.66% among 230,000. AID 485360; also: % is scaled to controls: 0 for no effect and ±100 for the full control effect; nearly all actives have a fitted effect of over 60% in size
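First, the protein-peptide complex forms for 30 min at room temperature (L3MBTL1 50 nM, biotinylated H3K9me1 peptide 75 nM). Next, compounds are pin-transferred and incubated 30 min. Finally, AlphaScreen beads are added and read after 30 min.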
KinaseGlo FLuc = counter-screen: inhibitors of Kinase-Glo firefly luciferase; Q27757; Kinase-Glo luciferase, ATP luminescence, 8 min; Potency, µM (doses to about 38.3 µM), for inactives: at the top dose activity change, negative = inhibition, most hits filed as inhibitors; hit rate 0.28% among 200,000; also: % is scaled to controls: 0 for no effect and ±100 for the full control effect; nearly all actives have a fitted effect of over 60% in size
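Compound is pinned into ATP-containing buffer (10 uM ATP, imidazole pH 7.2, 7 mM MgCl2). Kinase-Glo luciferase reagent is then added. Light output is recorded following an 8-min room-temperature incubation.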
LMNA splice mod = changes lamin A minigene splicing in HeLa cells; HeLa LMNA splicing GFP/RFP minigene ratio, 48 h; Potency, µM (doses to about 46.1 µM), for inactives: at the top dose ratio change, negative = inhibition, hits mostly inhibitors; hit rate 0.01% among 200,000; AID 1487; active = well fitted inhibition curve with a large enough effect in the signal ratio, with a control signal flat, not every such curve was filed as active; inconclusive = small, poorly fitted or top-dose-only effect, or effect the other way, or a change in a side signal; the % refers to the signal ratio; also: % is scaled to controls: 0 for no effect and ±100 for the full control effect
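S3 HeLa stable clones carrying a lamin A-EGFP splicing minigene plus DsRed2 were seeded at 600 cells/well in Opti-MEM with 2% FBS, pin-dosed and incubated 48 h at 37°C. Acumen cytometry (488 nm) gave the GFP/RFP total-intensity ratio.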
SMN2 splice enh = SMN2 splice variant enhancement; HEK293 SMN2-luciferase splicing reporter, luminescence, 30-36 h; Potency, µM (top dose mostly 46.1 µM), for inactives: at the top dose activity change, positive = activation, actives largely listed as activators; hit rate 2.8% among 210,000; AID 1458; also: % of control where 0% means no effect; nearly all actives have a fitted effect of over 55% in size
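HEK293 cells carry an SMN2 […]–luciferase reporter in which exon 7 inclusion puts luciferase in frame. Cells were plated 10-12 h before compound addition, then incubated 30-36 h at 37C. ONE-Glo luminescence was read; sodium butyrate at 4.5 mM final served as control.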
ALDH1A1 inh = inhibitors of human aldehyde dehydrogenase 1A1 | Potency, µM (top dose mostly 75.3 µM), inactives show at the top dose activity, negative = inhibition, actives largely listed as inhibitors | hit rate 7.3% among 220,000 | AID 1030 | Purified ALDH1A1, NADH fluorescence, propionaldehyde substrate | P00352; active = well fitted inhibition curve with a large enough effect, not every such curve was filed as active; inconclusive = small, poorly fitted or top-dose-only effect, or another doubt; inactive = no such curve, though single readings can be large or run the other way;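 also: plate controls were no enzyme wells and a reference inhibitor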
Target sequence (P00352 whole entry, looked up): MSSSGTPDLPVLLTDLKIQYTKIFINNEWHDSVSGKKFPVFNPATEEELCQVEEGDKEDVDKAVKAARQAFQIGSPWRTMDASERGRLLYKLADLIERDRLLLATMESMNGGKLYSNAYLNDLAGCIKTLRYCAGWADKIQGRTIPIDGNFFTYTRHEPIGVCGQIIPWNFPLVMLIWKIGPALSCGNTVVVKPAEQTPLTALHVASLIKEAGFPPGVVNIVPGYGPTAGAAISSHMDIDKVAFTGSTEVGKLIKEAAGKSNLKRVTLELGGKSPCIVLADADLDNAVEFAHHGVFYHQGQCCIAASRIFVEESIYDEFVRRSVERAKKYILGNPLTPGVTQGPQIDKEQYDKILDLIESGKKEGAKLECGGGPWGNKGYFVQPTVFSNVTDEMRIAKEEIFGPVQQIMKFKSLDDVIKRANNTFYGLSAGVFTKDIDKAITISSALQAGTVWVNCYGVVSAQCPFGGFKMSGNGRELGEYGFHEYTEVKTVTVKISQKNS
An asterisk follows results filed as active; i = inactive; ? = inconclusive; · = not tested or not shown; & = joins results of further samples; [ ] = dose if it differs, or a comment. Unless noted, calls follow the shape of the dose curve; as a rule, active = well fitted curve in the direction sought with a large enough effect; inconclusive = small, poorly fitted or top-dose-only effect, or another doubt; inactive = no such curve, though single readings can be large; an effect the other way counts as inactive or inconclusive. Potency is read from the fitted curve at half-maximal effect.

| item | molecule | SMN2 splice enh | L3MBTL1 block | KinaseGlo FLuc | LMNA splice mod | RECQ1 helicase | ALDH1A1 inh | Tau fibril ThT |
| --- | --- | --- | --- | --- | --- | --- | --- | --- |
| 1 | CC(=O)c1cc2c(cc1NC(=O)CN1CCCCCCC1)OCO2 | -10% | -5% | 2% | -7% | 0% | 10µM* | ? |
| 2 | CC(=O)NC1(C(F)(F)F)C(=O)Nc2c1c(=O)[nH]c(=O)n2-c1ccccc1 (configuration not stated) | · | · | · | · | -3% | · | · |
| 3 | O=C(CCC(=O)N1CCN(C(=O)c2ccco2)CC1)c1ccc(F)cc1 | 0% | 0% | 0% | 7%[46 µM] | i | 0% | -17% |
| 4 | COC(=O)c1cc(NC(=O)c2ccccc2)c(=O)oc1C/C=N\OCc1ccc(Cl)cc1Cl | -1% | · | -3% | -2% | -29% | ? | ? |
| 5 | O=C(CSc1nc(Cc2ccccc2)nc2ccccc12)Nc1nc2c(s1)CCCC2 | -11% | -7% | 5% | ? | -3% | 6% | -31% |
| 6 | Cc1ccc(/C=C/C(=O)Nc2ccc(S(N)(=O)=O)cc2)o1 | -5% | 1% | -3% | ? | -9% | 25µM* | ? |
| 7 | OCCNCCCCOc1ccccc1F | 19% | 3% | 2% | -13% | -2% | 3% | 0% |
| 8 | O=C(Cn1nc(-c2ccc3c(c2)OCCO3)ccc1=O)Nc1cccc(NC(=O)c2ccccn2)c1 | 8% | -13% | -3% | -8%[9.22 µM] | -5% | 2% | 8% |
| 9 | Cc1nc(SCC(=O)c2ccc(F)cc2)n[nH]1 | 2% | -5% | -1% | ? | 15% | 4.5µM* | -19% |
| 10 | CC(Cc1ccccc1)C(=O)N1CCN(C)CC1 (configuration not stated) | -2%&0% | -5% | 0%&-4% | 5% | -7% | 4%&-2% | -3%&1% |
| 11 | O=C(CN1CCN(c2ccccn2)CC1)Nc1ccc(F)cc1 | -1% | · | 1% | 15% | -2% | ? | -7% |
| 12 | Cc1ccccc1-n1cc(CNCc2c(C(=O)N(C)C)nc3ccc(Cl)cn23)cn1 | · | 10% | 0% | · | i | ? | -6% |
| 13 | Cc1ccc(OCC(=O)Nc2ccc(Cl)cc2)c(-n2nc3ccccc3n2)c1 | -18% | 0% | -2% | 12% | -7% | ? | -9% |
| 14 | COc1ccc(-n2c(NN)nc3sc4c(c3c2=O)CCCC4)cc1 | -68%[inhibitor] | -1% | 0% | ? | i | ? | ? |
| 15 | Cc1cccc(C)c1NC(=O)N1C(C(=O)O)CSC1C(=O)O (configuration not stated) | 3% | 20% | 3% | -6% | 3% | 3% | -11% |
| 16 | COc1ccc(C/C(N)=N/OC(=O)c2cccs2)cc1 | · | · | 1% | ? | 0% | -1% | -6% |
| 17 | Cc1ccc(C(C)C)c(OCC(O)CN2CCOCC2)c1 (configuration not stated) | -12% | -6% | 2% | -1% | i | -1% | -1% |
| 18 | COc1ccc(NC(=O)N2c3ccccc3C(C)=CC2(C)C)cc1 | 2% | -5% | -1% | -7%[46 µM] | -6% | ? | ? |
| 19 | O=C(Nc1ccc(Cl)cn1)C1CCCN1S(=O)(=O)c1ccccc1 (configuration not stated) | -11% | -3% | -7% | ? | -4% | 16% | -4% |
| 20 | O=C(CNc1ccc2ccccc2c1)N/N=C/c1ccccn1 | · | -12% | · | · | 2% | 2% | ? |
| 21 | CC1CCCN(S(=O)(=O)c2ccc(NC(=O)CN3CCN(C)CC3)cc2)C1 (configuration not stated) | -11% | 12% | -4% | 12% | i | ? | -2% |
| 22 | COc1cc(OC)c(C2C(C#N)=C(N)OC3=C2C(=O)CC(C)(C)C3)cc1OC (configuration not stated) | 11% | -11%[11.4 µM] | -3% | ? | -14% | ? | -11% |
| 23 | COC(=O)Oc1ccc(/C=C/C(=O)OC(C)C)cc1OC(=O)OC | ? | 6% | 2% | -2% | ? | -8% | ? |
| 24 | CCOc1cc(/C=N\Nc2ncc(F)c(N3CCOCC3)n2)ccc1Oc1nc(Cl)ncc1F | · | -5% | · | · | -10% | · | -16% |
| 25 | Cc1cc(OCCCN2CCN(Cc3ccccc3)CC2)ccc1[N+](=O)[O-] | -21% | -26% | -1% | 0%[46 µM] | -7% | ? | -10% |
| 26 | CN1CCC(N(C)CC(O)c2ccccc2)CC1 (configuration not stated) | 9% | -5% | 1% | -26%[46 µM] | -8% | -10% | -7% |
| 27 | C/C(CC(=O)NC1CCCCC1)=N\NC(=O)COc1ccc(C)cc1Br | 11% | 19% | -2% | · | i | ? | -10% |
| 28 | O=C(CNCC1CCCO1)Nc1ccccc1-n1cccc1 (configuration not stated) | -3% | 3% | 3% | -6% | i | ? | -1% |
| 29 | Cc1ccc(NC(=O)CNCC(c2ccccc2)N(C)C)cc1F (configuration not stated) | · | · | · | · | 5% | · | -14% |
| 30 | CN(CCOc1ccccc1)CC(=O)Nc1ccc(Cl)c(S(=O)(=O)N(C)C)c1 | -50%[inhibitor] | -2% | 3% | -21%[46 µM] | -7% | ? | -12% |
| 31 | O=[N+]([O-])c1ccc(CN2CCSCC2)cc1 | 12% | 2% | 4% | 1%[46 µM] | -4% | -13% | -1% |
| 32 | Cc1cccc(OCCNC(=O)CSc2ccc(C(F)(F)F)cc2[N+](=O)[O-])c1 | -6% | -1% | -5% | -8% | -12% | ? | -8% |
| 33 | O=c1cc(O)c2sc(Nc3ccc(Cl)c(F)c3)nc2[nH]1 | · | · | · | · | i | · | 16µM* |
| 34 | COc1ccc(C(=O)Nc2nc(C)cc(C)n2)cc1 | · | -1% | -1% | · | ? | 3% | ? |
| 35 | CC(C)C[C@@H](COCc1cccc(Cl)c1)N1CCN(C(=O)c2cccc(C(F)(F)F)c2)CCC1=O | · | · | 2%[39.9 µM] | · | -1% | 1%[50.4 µM] | -5% |
| 36 | CCOC(=O)C(=O)Nc1cc(C)nn1-c1nc2ccccc2[nH]1 | · | 19% | · | · | i | -16% | -12% |
| 37 | O=C(CCN1CCCCCC1)Nc1ccc2c(c1)OCCO2 | 14% | · | 2% | · | 0% | ? | 2% |
| 38 | O=C(CCC1CCCN(C(=O)c2ccsc2)C1)NCc1ccc(F)c(F)c1 (configuration not stated) | · | -2% | 3% | 4%[46 µM] | i | -1% | -5% |
| 39 | Cc1ccc(C)n1NC(=O)c1ccccc1O | -26% | -10% | -11% | 13% | -2% | ? | ? |
| 40 | COc1ccc(CN2CCN(C(=O)c3ccco3)CC2)cc1OC | 9% | 5% | 0% | -27%[46 µM] | i | 20µM* | -1% |
| 41 | COc1ccc(CN(C)CC(=O)NC(C)c2ccccc2)c(OC)c1 (configuration not stated) | · | · | · | · | i | ? | -4% |
| 42 | O=C1C=C(NNC(=O)c2cccnc2)CC(c2ccco2)C1 (configuration not stated) | 7% | · | 0% | ? | -5% | -14% | -19% |
| 43 | Cc1ccccc1CN(C)CCc1ccccn1 | 8% | 28% | 0% | 9%[46 µM] | -14% | -7% | 0% |
| 44 | O=c1cc(NC2CCCCC2)c2ccccc2o1 | -15% | · | -5% | ? | -9% | -7% | -6% |
| 45 | Cc1cccc2c3c([nH]c12)C(=O)CC(C)(C)S3 | · | 2% | 4% | 0%[46 µM] | i | 11% | -4% |
| 46 | CC(=O)Oc1c2occc2cc2ccc(=O)oc12 | 14% | · | 2% | 5% | 9% | -8% | ? |
| 47 | CC(C)OC(=O)c1cc(C(=O)c2cc(Br)ccc2O)coc1=N | -35% | · | 0% | ? | -1% | ? | -10% |
| 48 | Cc1ccc(C(=O)CSc2ncn[nH]2)cc1 | -3% | 0% | -3% | 10% | 9% | ? | -2% |
| 49 | COc1ccc2c(c1OC)C(=O)NC(C)=C(C(=O)OC(C)(C)C)C2O (configuration not stated) | -6% | 10% | -4% | -12% | -5% | ? | -11% |
| 50 | CCN1CCN(CCCCSc2ccccc2)CC1 | 12% | 2% | 0% | -10% | -2% | ? | -2% |

(list continues)
| item | molecule | SMN2 splice enh | L3MBTL1 block | KinaseGlo FLuc | LMNA splice mod | RECQ1 helicase | ALDH1A1 inh | Tau fibril ThT |
| --- | --- | --- | --- | --- | --- | --- | --- | --- |
| 51 | COc1ccccc1N1CCN(Cc2ccc(OC)c(OC)c2OC)CC1 | 2% | · | -3% | -18% | i | -17% | -5% |
| 52 | CCCNC(=O)c1ccc2c(c1)C1C3CCC(C3)C1C(c1ccccc1)N2 (configuration not stated) | -3% | · | -4% | ? | i | 2% | -15% |
| 53 | COc1ccccc1N1CCN(C(C)C(=O)N2CC(C)OC(C)C2)CC1 (configuration not stated) | 2% | · | 6% | · | i | ? | -5% |
| 54 | CC1CCN(CCOc2cccc(Br)c2)CC1 | -3% | -4% | -1% | -12% | -18% | -4% | 12% |
| 55 | CC(NC(=O)COC(=O)CSCc1ccccc1)c1ccccc1 (configuration not stated) | 3% | 70%[activator] | 3% | · | -4% | -1% | -4% |
| 56 | c1coc(C2Nc3ccccc3-c3nc4ccccc4n32)c1 (configuration not stated) | 18µM* | · | -8% | -9% | 5% | ? | -22% |
| 57 | Cc1cc(C)nc(/N=C(\N)Nc2cc([N+](=O)[O-])ccc2C)n1 | -10% | 1% | -1% | -7% | i | 18% | -11% |
| 58 | CC(C)(CN1CCC(Cc2ccccc2)CC1)NS(=O)(=O)c1ccccc1 | · | -1% | · | · | -8% | · | -9% |
| 59 | CCCOc1ncnc2c1sc1nc3c(cc12)COC(C)(C)C3 | · | 0% | 1% | 1%[46 µM] | i | ? | -5% |
| 60 | CC(C(=O)NC1CCCCC1)N1CCN(C)CC1 (configuration not stated) | · | · | · | · | 1% | · | 3% |
| 61 | COc1ccc(-c2cc3cc(OC)c(OC)cc3c(C)n2)cc1C | · | · | · | · | 18% | · | ? |
| 62 | Cc1ccc(-c2nc3ncccc3o2)cc1NC(=O)c1cccs1 | · | 0% | 3% | ? | i | 4% | -6% |

Source: PubChem (National Center for Advancing Translational Sciences (NCATS))

These rows are one share of the data, so the mix of outcomes need not match the whole.
